# From PubChem
# Methyltransferases = Primary Screen for Target Class Profiling of Small Molecule Inhibitors of Methyltransferases; purified enzyme, MTase-Glo SAH luminescence; stronger effect = lower value; AID 1745853, 2022; calls only at 40 µM; 25,000 compounds, 3.9% hits; active = -50% or lower on at least one of six enzymes; inconclusive = the cases between; inactive = as a rule above -30% on all six;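 also: enzymes were COMT GAMT GNMT HNMT NNMT and PNMT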
#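 Each enzyme was reacted with SAM and its substrate, with compounds tested once at 40 uM; SAH formed was read by MTase-Glo luminescence.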
# Calls only; i = inactive; ? = inconclusive; + = active, no number. % is scaled to controls: 0 for no effect and ±100 for the full control effect. Some of the compounds tested (hit frequency here may not be typical).
SMILES,Methyltransferases
Cc1cc(C)cc(NC(=O)CSc2nnc3n(CCc4ccccc4)c(=O)c4ccccc4n23)c1,i
CCCCN(CC)CCN1C(=O)c2cc3sccc3n2CC1(C)C(=O)NC1CCCCCCC1 (stereo unspecified),i
CCOc1ccc(CCN2C(=O)c3cc(C(=O)OC)nn3CC2(C)C(=O)NC2CCCCCC2)cc1 (stereo unspecified),i
CC1(C(=O)NC2CCCC2)Cn2c(ccc2-c2ccco2)C(=O)N1Cc1cccs1 (stereo unspecified),i
COc1cccc(CC(=O)N[C@@H]2CN(c3ncccn3)C[C@H]2CO)c1,i
CCN(CCCNC(=O)CCCc1nnc2n3nc(-c4ccccc4)nc3c3ccccc3n12)c1ccccc1,i
Cc1nnc2n1CCC(NC(=O)c1ccoc1)CC2 (stereo unspecified),i
CCCCNC(=O)CCc1nnc2n(Cc3ccc(Cl)cc3)c(=O)c3ccccc3n12,i
CC(C)c1cccc(N2C(=O)c3ccccc3CC2(C)C(=O)NCc2ccccc2)c1 (stereo unspecified),i
CCC(C)CNCC(=O)N1CCC2SC=CC2C1COc1cccc(C)c1 (stereo unspecified),i
CCn1c(CO)nnc1C1CC(NC(=O)Cn2ncc3ccccc32)C1 (stereo unspecified),i
N#Cc1cc(C2=Nc3ccc(Br)cc3NC(=O)C2)ccn1,?
CCC1c2ccc(C)n2CCN1C(=O)NCc1ccc(F)cc1 (stereo unspecified),i
O=c1c2ccccc2n2c(=O)n(Cc3ccccc3Cl)nc2n1Cc1ccccc1,i
O=C(N[C@@H]1CN(C(=O)c2[nH]nc3c2CCc2ccccc2-3)CC[C@@H]1CO)c1ccccc1,i
C/C=C/C(O)C1OC(=O)CC1Nc1ccc(C(=O)O)cc1 (stereo unspecified),i
CCCn1c(C)cnc1C1CCNC1 (stereo unspecified),i
CC1(C(=O)NC2CCCCCCC2)Cn2c(ccc2-c2ccco2)C(=O)N1Cc1cccnc1 (stereo unspecified),i
CCOc1ccc(CNC(=O)CNC(=O)C2(C)Cn3c(cc4ccccc43)C(=O)N2C)cc1 (stereo unspecified),i
CC(C)c1nc(N2CCOCC2)ncc1C(=O)O,i
O=c1c(NS(=O)(=O)Cc2ccccc2)ccc2n1C[C@H]1C[C@@H]2CN(S(=O)(=O)c2ccccc2)C1,i
O=C(NCc1cccnc1)C1CCC(=O)N1C1CCN(C(=O)Cc2ccccc2F)CC1 (stereo unspecified),i
CC(C)(O)c1ccc2c(c1)C(=O)C[C@H]1[C@](C)(C(=O)O)CCC[C@]21C,i
CCOc1ccc(NC(=O)N2Cc3c(sc4c3CCCC4)-n3cccc3C2c2cccc(C)c2)cc1 (stereo unspecified),i
COCCCNc1ccnc(-c2nnc(C)n2-c2ccccc2)c1,i

# (listing goes on)
SMILES,Methyltransferases
O=C(c1ccco1)N1CCCC1c1nc(C2CCOCC2)no1 (stereo unspecified),i
C[C@H]1[C@H](C)C[C@@H](C(=O)O)C2CC[C@]3(C)C(=CC[C@@H]4[C@@]5(C)CC[C@H](O)C(C)(C)[C@@H]5CC[C@]43C)[C@@H]21 (stereo partly specified),i
CCC(C)Nc1nc2c(-c3ccc(Cl)cc3)nnn2c2ccccc12 (stereo unspecified),i
CC1CCN(Cc2nnnn2CCCC(=O)N2CCN(CCO)CC2)CC1,i
CCN(CC)CC1CCN(c2ncc3ncnc(Nc4ccc(F)c(Cl)c4)c3n2)CC1,?
C=CCC1=C[C@]2(OC)[C@H](C)[C@@H](c3ccc(O)c(OC)c3)O[C@]2(OC)CC1=O,?
O=C(Cn1c(=O)oc2cc(S(=O)(=O)NCc3ccccc3)ccc21)N1CCCCC1,i
CC1(C)C2CC[C@]3(C)C(C(=O)C=C4[C@H]5C[C@@](C)(C(=O)O)CC[C@]5(C)CC[C@]43C)[C@@]2(C)CC[C@@H]1O (stereo partly specified),?
COc1ccccc1N1CCN(C(=O)CC[C@]23CC[C@](C)(O)C[C@H]2C(C)(C)C[C@@H]3NC(=O)c2cccnc2)CC1,i
O=C(CCc1nnc2n(Cc3ccc(F)cc3)c(=O)c3ccccc3n12)NCc1ccc(F)cc1,i
Cc1nc(C2(C)CCN(C(=O)CCc3cc(Cl)no3)CC2)no1,i
O=C(C1CCC1)N1CCC(Cc2nncn2Cc2ccccc2)CC1,i
O=C(Nc1ccc(Br)cc1F)N1CCn2cccc2C1Cc1ccccc1 (stereo unspecified),i
CCOc1ccc(NC(=O)c2ncn3c2C(=O)N(C2CC2)C(C)(C(=O)NCc2ccc(F)cc2)C3)cc1 (stereo unspecified),i
COCCN[C@H]1[C@@H]2OC[C@@H](O2)[C@@H](NCc2cnc3ccccc3c2)[C@@H]1O,i
CCN(CC)CCCNC(=O)CCCc1nnc2n3nc(-c4ccccc4)nc3c3ccccc3n12,+
COc1ccc(C(=O)Nc2c(Cl)cncc2Cl)cc1OC1CCCC1,i
CC(C)c1noc(C2CCN(c3ncnc(Nc4ccc(S(C)(=O)=O)cc4F)c3[N+](=O)[O-])CC2)n1,i
CC1(C)C[C@H]2C=C(C=O)[C@]3(C(=O)O)C[C@]3(C)[C@H]2C1,i
Cc1ccc(NC(=O)Cn2c(=O)oc3cc(S(=O)(=O)N4CCCC4)ccc32)cc1,i
Cc1ccc(CNC(=O)CCc2nc(C3CCCN3S(C)(=O)=O)no2)o1 (stereo unspecified),i
O=C1CCC(C(=O)N2CCOCC2)CN1CCCc1ccccc1 (stereo unspecified),i
COc1cccc(CN2C(=O)c3nc4ccccc4n3CC2(C)C(=O)NC2CCCCCC2)c1 (stereo unspecified),i
Cc1nc(CN2CCOc3cc([S+](=O)([O-])Nc4ccccc4)ccc3C2)cs1,i
C=CCn1c(=O)c2ccc(C(=O)NC(C)C)cc2n2c(=O)n(CC(=O)NCCc3ccccc3)nc12,i

# 4 compounds from above, sorted by molecular weight, low to high:
SMILES,Methyltransferases
CCC(C)Nc1nc2c(-c3ccc(Cl)cc3)nnn2c2ccccc12 (stereo unspecified),i
CC1CCN(Cc2nnnn2CCCC(=O)N2CCN(CCO)CC2)CC1,i
O=C(CCc1nnc2n(Cc3ccc(F)cc3)c(=O)c3ccccc3n12)NCc1ccc(F)cc1,i
CC(C)c1noc(C2CCN(c3ncnc(Nc4ccc(S(C)(=O)=O)cc4F)c3[N+](=O)[O-])CC2)n1,i

# Further structures:
SMILES,Methyltransferases
Cc1ccc(Cn2c(=O)c3ccccc3n3c(SCC(=O)Nc4cc(F)ccc4F)nnc23)cc1,i
COc1ccccc1CNC(=O)C1(C)Cn2nc(-c3ccccc3)cc2C(=O)N1Cc1ccc(F)cc1 (stereo unspecified),i
O=C(N[C@H]1CCN2C(=O)c3cc(-c4ccc(Cl)cc4)ccc3NC(=O)[C@H]12)C1CCCC1,i
Cc1ncc2n1C(=O)N(C1CCN(CC3CC3)CC1)C2,i
CN(C)S(=O)(=O)N1CCOCCNC(=O)[C@@H]2CCC[C@@H]21,i
CC(O)C(O)/C=C/C=C/C(=O)O[C@@H]1C=C2COC(=O)[C@]2(O)[C@@]2(C)CCCC(C)(C)C12 (stereo partly specified),i
CCCn1c(=O)c2ccc(C(=O)NC3CCCC3)cc2n2c(=O)n(CC(=O)c3cccc(Cl)c3)nc12,i
COCCOc1cc(=O)n2c(c1C(=O)NCc1ccccc1)CCOCC2,i
COCCCNC(=O)C1(C)Cn2nc(-c3ccccc3)cc2C(=O)N1Cc1cccc(C)c1 (stereo unspecified),i
CCCNC(=O)NCCn1c(C)cnc1-c1ccncc1,i
O=C(CN1CCOCC1)N1CCC(c2cc(N3CCCC3)ncn2)CC1,i
CCCN1C(=O)c2c(C(=O)NCc3ccccn3)ncn2CC1(C)C(=O)NCc1ccc(C)cc1 (stereo unspecified),i
CC(C)OCCCN1C(=O)c2cnn(-c3ccccc3)c2-n2cccc2C1C(=O)NC1CCCCCC1 (stereo unspecified),i
O=C(c1ccc2c(=O)nc3c(-c4ccccc4F)n[nH]n3c2c1)N1CCN(c2ccc(F)cc2)CC1,i
COC1C(=O)N(C2CCN(C(=O)c3cc(C)nn3C)CC2)C12CCOCC2 (stereo unspecified),i
COCCN1CC(C(=O)NCCOc2ccccc2)CCC1=O (stereo unspecified),i
Cc1ccc(Cn2c(=O)c3ccccc3n3c(CCC(=O)NCc4ccccc4Cl)nnc23)cc1,i
CC1CCN(C(=O)CC2Sc3ncccc3N(C)C2=O)CC1 (stereo unspecified),i
CCOc1ccc(C(=O)N2CCC(n3cc(-c4nc(CC)no4)nn3)C2)cc1 (stereo unspecified),i
C=C(C)C(=O)OC1CC2(C)OC(=CC2=O)C(=C)CC2OC(=O)C(COC)C12 (stereo unspecified),+
CN1C(=O)c2cc(C(=O)NCCCc3ccccc3)nn2CC1(C)C(=O)NC1CCCCC1 (stereo unspecified),i
Cc1cc(C)cc(N2C(=O)c3cc4occc4n3CC2(C)C(=O)NC2CCCC(C)C2C)c1 (stereo unspecified),i
Cc1ccc(CN2CCCCC23Cc2ccccc2CNC3=O)cc1C (stereo unspecified),i
Cc1cc(Nc2ccc(NC(=O)c3ccc(Nc4ccnc5ccccc45)cc3)cc2)nc(N)n1,+
CCCN1C(=O)c2c(C(=O)NCc3ccc(OC)cc3)ncn2CC1(C)C(=O)NCc1ccccc1 (stereo unspecified),i

# (more compounds)
SMILES,Methyltransferases
COc1cccc(CN2C(=O)c3cc4ccc(OC)cc4n3CC2(C)C(=O)NCC2CCCO2)c1 (stereo unspecified),i
CCn1nc(CNC(=O)Cc2ccccc2F)c2ccccc21,i
Cc1ccc(C(=O)Nc2ccc3c(c2)C(=O)N(C)C2=NCCN23)cc1,i
CCc1ccc(-c2cc3n(n2)CC(C)(C(=O)NC2CCCCC2)N(CCCOC(C)C)C3=O)cc1 (stereo unspecified),i
CC(C)NC(=O)c1ccc2c(=O)n(C(C)C)c3nn(CC(=O)Nc4ccccc4)c(=O)n3c2c1,i
C=Cc1ccc(Cn2nc3n(C(C)C)c(=O)c4ccc(C(=O)NC5CCCC5)cc4n3c2=O)cc1,i
Cc1ccc(CCNC(=O)c2cc3n(n2)CC(C)(C(=O)NCc2ccc(F)cc2)N(C)C3=O)cc1 (stereo unspecified),i
CC(C)c1ccc(CNC(=O)c2ccc3c(=O)nc4c(-c5ccccc5)n[nH]n4c3c2)cc1,i
CC(C)Cn1c(=O)c2ccc(C(=O)NC(C)C)cc2n2c(=O)n(Cc3ccc(N4CCCC4=O)cc3)nc12,i
C=CCN1CCc2c(cc(O)c(O)c2Br)[C@@H](c2ccccc2)C1,?
COc1ccccc1CNC(=O)Cn1ccc2cc(S(=O)(=O)N3CCCC3)ccc21,i
CSc1ccc(CCNC(=O)C(C)n2ccc3cc(S(=O)(=O)N4CCCC4)ccc32)cc1 (stereo unspecified),i
COc1ccc(Br)cc1CNC(=O)c1cc2n(n1)CC(C)(C(=O)NCc1ccccc1)N(C)C2=O (stereo unspecified),i
C=C(C(=O)OC)C1CCC2(C)C(O[C@@H]3O[C@H](CO)[C@@H](O)[C@H](O)[C@H]3O)CC(=O)C(C)C2C1O (stereo partly specified),i
Cc1ccc(CNC(=O)Cn2c(=O)oc3cc(S(=O)(=O)N4CC(C)CC(C)C4)ccc32)cc1 (stereo unspecified),i
COC(=O)c1cc(COc2ccc3c(-c4ccccc4)cc(=O)oc3c2C)c(C)o1,i
C=CCn1c(=O)c2ccc(C(=O)NC(C)C)cc2n2c(=O)n(CC(=O)NC3CCCC3)nc12,i
CCOc1ccccc1CN1C(=O)c2cc(C(C)(C)C)nn2CC1(C)C(=O)NC1CCCCC1 (stereo unspecified),i
COC1CCCC/C(C)=C/C2C=C(C)C(C)C3C(CC(C)C)NC(=O)C23C(=O)C1 (stereo unspecified),i
CCCn1c(=O)c2ccc(C(=O)NC(C)C)cc2n2c(SCC(=O)Nc3ccc(CC)cc3)nnc12,i
CN1C[C@@H](NC(=O)NC2CCCCC2)C[C@H]1c1nc(-c2ccccn2)no1,i
CCc1ccc(N2C(=O)c3ccccc3CC2(C)C(=O)NCc2ccccc2C)cc1 (stereo unspecified),i
COC(=O)c1ncn2c1C(=O)N(c1ccc(F)cc1)C(C)(C(=O)NC1CCCC1)C2 (stereo unspecified),i
CCC(C)NC(=O)c1ccc2c(=O)n(CCC(C)C)c3nn(CC(N)=O)c(=O)n3c2c1 (stereo unspecified),i
Cc1nn2c(c1-c1ccccc1C(C)C)N([S+](=O)([O-])c1ccc(C(C)C)cc1)CCC2,i

# Brought forward from above: 4 entries; new compounds follow.
SMILES,Methyltransferases
CCc1ccc(N2C(=O)c3ccccc3CC2(C)C(=O)NCc2ccccc2C)cc1 (stereo unspecified),i
COC(=O)c1ncn2c1C(=O)N(c1ccc(F)cc1)C(C)(C(=O)NC1CCCC1)C2 (stereo unspecified),i
CCC(C)NC(=O)c1ccc2c(=O)n(CCC(C)C)c3nn(CC(N)=O)c(=O)n3c2c1 (stereo unspecified),i
Cc1nn2c(c1-c1ccccc1C(C)C)N([S+](=O)([O-])c1ccc(C(C)C)cc1)CCC2,i
N#Cc1cccc(C(=O)N2CCCOCCNC(=O)CC2)c1,i
O=c1c2ccccc2n2c(=O)n(Cc3ccc(Cl)cc3)nc2n1CCc1ccccc1,i
CC(C)CNC(=O)c1ccc2c(=O)n(C)c3nn(CC(=O)NCc4ccccc4Cl)c(=O)n3c2c1,i
COCCN1C(=O)c2cc3ccccc3n2CC1(C)C(=O)NC1CCCC1 (stereo unspecified),i
CC(C)NC(=O)c1ccc2c(=O)n(Cc3ccccc3)c3nn(Cc4ccccc4Cl)c(=O)n3c2c1,i
CCC(C)NC(=O)c1ccc2c(=O)n(C)c3nn(CC(=O)c4cccc(Cl)c4)c(=O)n3c2c1 (stereo unspecified),i

# Structural class, those above containing two or more sulfur atoms.
SMILES,Methyltransferases
O=c1c(NS(=O)(=O)Cc2ccccc2)ccc2n1C[C@H]1C[C@@H]2CN(S(=O)(=O)c2ccccc2)C1,i
Cc1nc(CN2CCOc3cc([S+](=O)([O-])Nc4ccccc4)ccc3C2)cs1,i
CSc1ccc(CCNC(=O)C(C)n2ccc3cc(S(=O)(=O)N4CCCC4)ccc32)cc1 (stereo unspecified),i
